Anaer choline gr: blocks anaerobic gram-negative growth on choline; calls only; hit rate 0.2% among 55,000; Gram-negative bacterium anaerobic choline minimal medium, absorbance growth; hits give low values; many inactives read as strong as hits in the columns shown; AID 1963822;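 active means growth z-score on choline under -2 at 7 or 20 h with little or no fall on glycerol, limits in tiers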;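 further: stock transfer was 300 nL into about 50 µL; the organism is E. coli; final concentration not given here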
Anaer choline gr early: recorded beside Anaer choline gr, whose call it bears; z-score; measured here: choline growth z-score, timepoint 1;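 score of optical density at 7 h as mean of two plates; lower means less growth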
Starred values were filed as active, the others as inactive; i = inactive; & = joins results of further samples.

SMILES | Anaer choline gr | Anaer choline gr early
Cc1ccc(-c2cc(N3CCN(S(=O)(=O)c4ccc(Br)cc4)CC3)ncn2)cc1 | i | -0.36
CN(C)C(=O)c1nc(-c2ccsc2)nc2c1OCCO2 | i | -0.09
Cc1[nH]c(C)c(S(=O)(=O)N2CCC(C(=O)NC3CCCCC3)CC2)c1C(=O)N1CCCCC1 | i | -0.12
Cc1nc2ncccc2c(=O)n1-c1ccc(F)c(NC(=O)CC2CCCCC2)c1 | i | -0.67
COc1ccc(NC2c3ccccc3C(=O)N2Cc2ccc3c(c2)OCO3)cc1 (stereo unspecified) | i | 0.39
CN(C)c1cc(N2CCCC(NC(=O)c3ccco3)C2)ncn1 (stereo unspecified) | i | 0.49
O=C(Nc1ccc(Br)cc1)c1nc(-c2ccccc2)n(-c2ccc(F)cc2)n1 | i | -0.51
CCSc1nc2c3cc(OC)ccc3n(C)c2c(=O)n1C | i | -0.12
Nc1ncnc2c1ncn2[C@@H]1O[C@H](COP(=O)(O)OP(=O)(O)OP(=O)(O)OP(=O)(O)OC[C@@H]2O[C@H](n3cnc4c(N)ncnc43)C(O)[C@@H]2O)[C@H](O)C1O (stereo partly specified) | i | -0.69
COc1ccccc1NC(=O)c1cc2c(=O)oc3ccccc3c2n1C | i | 0.81
O=C(Nc1ccc(F)cc1)c1nnc(C2CCCN(C(=O)Nc3ccccc3)C2)s1 (stereo unspecified) | i | -0.23
CCc1noc(-c2ccccc2NC(=O)C2CC(=O)N(c3ccccc3)C2)n1 (stereo unspecified) | i | 0.83
NS(=O)(=O)c1ccc(NC(=O)CN2C(=O)c3cccnc3Sc3ccccc32)cc1 | i | 0.57
O=c1[nH]c(SCc2cccc(F)c2)nc2c1CN(Cc1ccc(F)cc1)CC2 | i | 0.68
O=C(Nc1cc(C(F)(F)F)cc(C(F)(F)F)c1)c1cc(Cl)ccc1O | i | 0.25&0.41
O=C(O)CCCC(=O)Nc1nc2n(n1)C(c1ccc(Cl)cc1)C=C(c1ccccc1)N2 (stereo unspecified) | i | -0.14
CCSc1nnc(-c2nn(C)c3c2CN(S(=O)(=O)Cc2ccccc2F)CC3)n1CC | i | 0.06
O=C(Nc1cccc(Br)c1)c1ccc(Nc2ccnc(-c3ccccc3)n2)cc1 | i | -0.15
Cc1ccccc1S(=O)(=O)NCCn1c(-c2ccncc2)nc2cccnc21 | i | -0.47
CCOc1ccc(-n2cc(C(=O)Nc3cccc4ncccc34)nn2)cc1 | i | 0.65
O=C(NCc1csc(-c2ccccc2)n1)[C@H]1CCCN1C(=O)Nc1ccc(Br)cc1 | i | -0.5
O=c1[nH]cc(S(=O)(=O)N2CCCC2)c(=O)[nH]1 | i | 0.92
COc1ccc(OC)c(S(=O)(=O)Nc2cc3c(cc2Oc2ccccc2)n(C)c(=O)c(=O)n3C)c1 | i | 0.43
Fc1ccc(COc2cccc3ccc(N4CCCC4)nc23)cc1 | i | 1.92
Cc1ccc(-c2[nH]ncc2CN2CCCC2c2c(C)noc2C)cc1C (stereo unspecified) | i | 0.02
Cc1ccccc1-c1noc(-c2ccccc2OCC(=O)Nc2nc(C(C)C)cs2)n1 | i | 0.81
CCOc1ccc(Br)cc1C1Nc2c(C)cc(C)cc2[C@H]2OCC[C@@H]12 (stereo partly specified) | i | -0.36
Cc1cc(C2CCCN2S(=O)(=O)c2ccc(Cl)cc2)no1 (stereo unspecified) | i | -1.74
COc1cc(=O)n(-c2ccccc2)nc1C(=O)Nc1ccc(Br)cc1 | i | 0.29
Cc1ccc(NC(=O)N2CCN(c3cc(N(C)C)nc(C)n3)CC2)cc1 | i | 0.62
CCc1cc(C2CCCN2C(=O)c2cc(-c3cccs3)on2)on1 (stereo unspecified) | i | 0.19
CN1[C@@H]2CC(OC(=O)[C@H](CO)c3ccccc3)C[C@H]1[C@@H]1O[C@@H]12 (stereo partly specified) | i | 0.46&-0.95&0.17
CCCn1nnc2cc(S(=O)(=O)N3CCCCC3C(=O)N3CCC(C(N)=O)CC3)ccc21 (stereo unspecified) | i | 0.57
Cc1ccc(-c2n[nH]c(CCNS(=O)(=O)c3ccc(F)c(F)c3)n2)cc1 | i | -1.09
CC1(C)Cc2nc3c(cc2CO1)c(=O)n(Cc1ccccc1)c(=O)n3CC(=O)N1CCOCC1 | i | -1
Cc1nn(-c2ccc(C(=O)N3CCN(c4ccccn4)CC3)cc2)c2c1C(=O)CCC2 | i | 0.84
CCOc1ccc(N(C(C)C(=O)N2CCN(c3ccccc3OC)CC2)S(C)(=O)=O)cc1 (stereo unspecified) | i | 0.24
Cc1nc(CN2C(=O)COc3ccc(S(=O)(=O)N4CCCc5ccccc54)cc32)no1 | i | -0.07
CC(=O)OCC(CCn1cnc2cnc(N)nc21)COC(C)=O | i | 0.72&-0.23&0.5&0.69
Cc1nc(CCNC(=O)C2CCN(S(=O)(=O)c3ccc(C(C)(C)C)cc3)CC2)cs1 | i | -1.25
CCCc1cc(C2CCCN2Cc2cc(C)ccc2C)no1 (stereo unspecified) | i | 0.64
O=C(Cn1ccc2c(SCc3ccccc3)nccc21)N1CCN(c2ccccc2)CC1 | i | 0.3
CCOC(=O)c1nc(Nc2ccccc2OCC)c2c(C)c(C)n(-c3ccccc3)c2n1 | i | 0.76
CN1CCN(CCCNC(=O)c2cc(-c3ccccn3)nc3ccccc23)CC1 | i | -0.71
Cc1cccc(NC(c2cccnc2)c2cc(C)sc2NC(=O)c2ccccc2)n1 (stereo unspecified) | i | 0.5
CN1CCN(S(=O)(=O)c2ccc(C(=O)Nc3cnc4ccccc4c3)cc2)CC1 | i | -0.79
O=C(Nc1ccc2c(c1)OCCO2)Nc1ccc2nc3n(c(=O)c2c1)CCC3 | i | -0.09
Cc1nc(Nc2ccc(F)cc2)nc2c1C(=O)CCC2 | i | 1.31
CC(=O)N1CCc2cc(-c3ccc(C(=O)N4CCN(c5ccccn5)CC4)cc3)ccc21 | i | 1.53
Cc1noc2nc(C)n(CC(=O)NC(C)C)c(=O)c12 | i | 0.83

The results go on:
SMILES | Anaer choline gr | Anaer choline gr early
COc1ccc(C2OC(c3ccc(Br)cc3)=NN2C(C)=O)cc1O (stereo unspecified) | i | 2.7
COc1cc2[nH]c3c(=O)n(CC(=O)N4CCN(c5ccc(F)cc5)CC4)cnc3c2cc1OC | i | -1.19
Clc1ccc(Nc2nc(NCC3CCCO3)nc3c2cnn3-c2ccccc2)cc1 (stereo unspecified) | i | 0.23
COc1ccc(-c2nc(-c3ccc4c(c3)ncn4CCC(=O)N3CCCC3)no2)c(OC)c1 | i | 0.05
Cc1ccc(N2Cc3cc(Cl)ccc3OCC2=O)cc1 | i | 0.04
COc1cc(NC(=O)Cn2c(C)cc(C)c(S(=O)(=O)c3ccc(Cl)cc3)c2=O)cc(OC)c1 | i | 0.54
CCN1CCCC1CNC(=O)c1ccc(-n2c(C)cc3c2CCC(C)C3)cc1 (stereo unspecified) | i | -0.68
CCOCCCNC(=O)Cn1c(CC)nc2onc(C)c2c1=O | i | -0.79
CCC(C)(C)NC(=O)CN(C)S(=O)(=O)c1cc2c(cc1Cl)NC(=O)CO2 | i | -0.29
Cn1cc(S(=O)(=O)N2CCCCC2)cc1C(=O)Nc1ccc(F)c(Cl)c1 | i | 0.38
COc1ccc(NC(=O)c2nnc(C3CCN(S(=O)(=O)c4ccccc4)CC3)s2)cc1 | i | 0.63
CN(C)c1nc2ncn3c(=O)n(CC(=O)Nc4ccc5c(c4)CCC5)nc3c2s1 | i | -2.2
O=C(CC1CCN(C(=O)c2cc3ccccc3[nH]2)CC1)NCc1ccc(Cl)cc1 | i | -0.91
COC(=O)C1=CN(c2cc(OC)cc(OC)c2)c2cc(Br)ccc2S1(=O)=O | i | -0.23
O=C(CSc1nnc2c3sc(N4CCCC4)nc3ncn12)Nc1ccc2c(c1)OCO2 | i | -0.4
Cc1noc(-c2ccccc2NC(=O)C2CC(=O)N(c3ccccc3)C2)n1 (stereo unspecified) | i | 0.49
O=C(CCc1nc(-c2ccc(S(=O)(=O)N3CCCCC3)cc2)no1)N1CCCC1 | i | -0.45
O=S(=O)(NCc1cccn1Cc1ccccc1)c1ccc(F)cc1 | i | 0.84
Cc1cc2c(cc3n2CC(C)(C(=O)NC2CCCCC2)N(CCN2CCN(C)CC2)C3=O)o1 (stereo unspecified) | i | 0.28
O=C(NCc1ccc(F)cc1F)C1CCN(c2nccn3nc(-c4ccc(F)cc4)cc23)CC1 | i | 0.46
O=c1n(Cc2cccc(Br)c2)nc2c(S(=O)(=O)N3CCCCCC3)cccn12 | i | 0.42
O=C(CCC(=O)N1CCc2cc(S(=O)(=O)NC3CC3)ccc21)N1CCCCC1 | i | -0.29
CCCCCNC(=O)C1CCC(Cn2c(=O)c3sccc3n(CC(N)=O)c2=O)CC1 (stereo unspecified) | i | -0.2
O=C(Nc1ccccc1F)c1oc2ccccc2c1NC(=O)C1c2ccccc2Oc2ccccc21 | i | -0.71
COc1ccc(S(=O)(=O)NCc2cccn2Cc2cccc(F)c2)cc1Cl | i | 1.59
O=C(NCCCn1c(-c2ccncc2)nc2cccnc21)Nc1ccccc1Cl | i | 3.95
CCNc1nc(C)cc(Nc2ccc(NC(=O)CC)cc2)n1 | i | -0.44
Cc1ccc(CN2C(=O)c3ccccc3CC2(C)C(=O)NC2CCC(C)CC2)cc1 (stereo unspecified) | i | 0.72
O=c1cc(CN2CCCC2)nc2nc(NCc3ccccc3Cl)[nH]n12 | i | -0.45
COc1ccc(CN2CCCC2c2cc(C(C)C)on2)c(O)c1 (stereo unspecified) | i | -1.44
COc1cccc(NC(=O)C2CCCN(S(=O)(=O)c3ccc4c(c3)CCCC(=O)N4)C2)c1 (stereo unspecified) | i | -0.53
COc1ccc(OCC(=O)N2CCC(C(=O)NCCc3csc(-c4ccccc4)n3)CC2)cc1 | i | -1.67
Cc1sc(-c2ccno2)cc1S(=O)(=O)NCC1CCCO1 (stereo unspecified) | i | -0.42
CCc1ccc(NC(=O)Nc2cc(NC(=O)c3cccc(C)c3)ccc2N2CCCC2)cc1 | i | 2.05
Cc1cc(C)c(S(=O)(=O)N2CCN(c3nc(C)cc(N4CCN(C)CC4)n3)CC2)c(C)c1 | i | 1.18
c1ccc(-n2ncc3c(Nc4ccc5c(c4)OCO5)nc(N4CCOCC4)nc32)cc1 | i | -0.27
O=c1oc2cc(O)cc(O)c2c2ccccc12 | i | -0.83
COc1cccc(Cn2nnc3cc(C(=O)NCc4ccccc4OC)ccc32)c1 | i | 1.08
CC1CCc2c(sc3nc(CCC(=O)N4CCCCC4)[nH]c(=O)c23)C1 (stereo unspecified) | i | -0.02
Cc1onc(-c2cccc(Br)c2)c1C(=O)NC(C)C | i | -0.86
Cc1[nH]c(C)c(S(=O)(=O)NCC2CCCO2)c1-c1nnc(C2CCC2)o1 (stereo unspecified) | i | 1.13
CC(C)CCN1C(=O)CC(C)Nc2ccccc21 (stereo unspecified) | i | -1.54
Cc1ccccc1Cn1cnc2c(oc3ccccc32)c1=O | i | 1.88
Cc1nc(-c2csc(S(=O)(=O)N3CCCC(C(=O)Nc4ccc(Cl)cn4)C3)c2)no1 (stereo unspecified) | i | -0.54
CCN(CC)S(=O)(=O)c1ccc2c(c1)CC(C(=O)N1CCC(C(N)=O)CC1)N2C(C)=O (stereo unspecified) | i | 0.13
CCc1nc2ccccc2n1CC(O)COc1cc(C)cc(C)c1 (stereo unspecified) | i | -1.2
Cc1cc(Nc2cc(F)ccc2C)nc(-n2nc(C)cc2C)n1 | i | -2.42
COc1ccc(NC(=O)c2nnc(SCC(=O)NCc3cccnc3)s2)cc1 | i | 0.24
O=C(O)c1nnc2ccc(N3CCOCC3)nn12 | i | 0.21
Cc1ccccc1-c1nc(CSc2nc(C)c(C)c(=O)[nH]2)c(C)o1 | i | -0.4

Following part
SMILES | Anaer choline gr | Anaer choline gr early
CC(C)(C)c1ccc(C(O)CCCN2CCC(C(O)(c3ccccc3)c3ccccc3)CC2)cc1 (stereo unspecified) | i | 0.5&0.5&-0.25
O=C(Nc1cccc(CCc2nc3ccccc3[nH]2)c1)c1[nH]nc2c1COc1ccccc1-2 | i | 0.22
Cc1ccc2cc3c(nc2c1)N(C(=O)C1CC1)CC3 | i | -0.47
Cc1ccc(Cn2c(Sc3ncccn3)nc3c2c(=O)[nH]c(=O)n3C)cc1 | i | -0.63
COc1ccc(NC(=O)c2ccc(-n3cnc(NC(C)=O)c3)cc2)c(OC)c1 | i | 5.37

Grouped by structure: the compounds so far with a Cl atom
SMILES | Anaer choline gr | Anaer choline gr early
O=C(Nc1cc(C(F)(F)F)cc(C(F)(F)F)c1)c1cc(Cl)ccc1O | i | 0.25&0.41
O=C(O)CCCC(=O)Nc1nc2n(n1)C(c1ccc(Cl)cc1)C=C(c1ccccc1)N2 (stereo unspecified) | i | -0.14
Cc1cc(C2CCCN2S(=O)(=O)c2ccc(Cl)cc2)no1 (stereo unspecified) | i | -1.74
Clc1ccc(Nc2nc(NCC3CCCO3)nc3c2cnn3-c2ccccc2)cc1 (stereo unspecified) | i | 0.23
Cc1ccc(N2Cc3cc(Cl)ccc3OCC2=O)cc1 | i | 0.04
COc1cc(NC(=O)Cn2c(C)cc(C)c(S(=O)(=O)c3ccc(Cl)cc3)c2=O)cc(OC)c1 | i | 0.54
CCC(C)(C)NC(=O)CN(C)S(=O)(=O)c1cc2c(cc1Cl)NC(=O)CO2 | i | -0.29
Cn1cc(S(=O)(=O)N2CCCCC2)cc1C(=O)Nc1ccc(F)c(Cl)c1 | i | 0.38
O=C(CC1CCN(C(=O)c2cc3ccccc3[nH]2)CC1)NCc1ccc(Cl)cc1 | i | -0.91
COc1ccc(S(=O)(=O)NCc2cccn2Cc2cccc(F)c2)cc1Cl | i | 1.59
O=C(NCCCn1c(-c2ccncc2)nc2cccnc21)Nc1ccccc1Cl | i | 3.95
O=c1cc(CN2CCCC2)nc2nc(NCc3ccccc3Cl)[nH]n12 | i | -0.45
Cc1nc(-c2csc(S(=O)(=O)N3CCCC(C(=O)Nc4ccc(Cl)cn4)C3)c2)no1 (stereo unspecified) | i | -0.54

Some of the compounds tested; rates above refer to the full screens.
